Beta2AR agonist – agonists of human beta-2 adrenergic receptor inducing internalization; P07550; Am2.2-beta2AR cells, FAP receptor internalization, flow cytometry; reference of the scale not given here; response, % (concentration not given with the values); hit rate 0.43% among 340,000;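 active = response above a set limit, near 3 SD of response in nonfluorescent compounds, cut at about 42% in these data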;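 also: stock transfer was 100 nL into about 11 µL; a reference agonist was the positive control; negative values mostly stem from fluorescent compounds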
Target sequence (P07550 whole entry, looked up): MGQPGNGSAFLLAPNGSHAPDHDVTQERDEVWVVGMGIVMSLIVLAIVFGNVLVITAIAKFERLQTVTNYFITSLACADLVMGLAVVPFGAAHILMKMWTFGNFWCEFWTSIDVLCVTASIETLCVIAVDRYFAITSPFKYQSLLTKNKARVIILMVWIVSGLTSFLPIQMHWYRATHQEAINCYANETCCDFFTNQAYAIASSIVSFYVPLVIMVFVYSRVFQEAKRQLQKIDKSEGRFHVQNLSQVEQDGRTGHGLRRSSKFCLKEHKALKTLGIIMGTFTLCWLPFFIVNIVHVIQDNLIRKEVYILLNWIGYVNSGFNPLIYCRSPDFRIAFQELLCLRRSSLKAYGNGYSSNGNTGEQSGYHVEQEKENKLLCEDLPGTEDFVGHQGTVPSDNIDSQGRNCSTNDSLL
Beta apoptosis – blocks beta cell apoptosis. INS-1E cytokine-induced death, ATP luminescence, 48 h; percent of positive-control rescue, neutral wells zero. protection from apoptosis, % (concentration not given with the values). hit rate 0.8% among 300,000;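 active = all replicates at 75% or more, or half of them and the mean; inconclusive = half reach 75% but not the mean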;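 also: 0% = cytokine-treated negative control wells and 100% = positive control rescue; higher means more ATP so stronger rescue from cytokine killing; wells of about 40 µL received 100 nL stock; the first replicate is given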
rRNA inh HTS – inhibitors of bacterial rRNA selective over humanized ribosomes; hit rate 1.6% among 350,000; GFP signal change (wild-type ribosome), % (no concentration beside the values); E. coli WT GFP vs humanized-ribosome RFP mutants, fluorescence, 24 h; active compounds read low; DMSO median 0, no signal -100;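 active = significant combined selectivity score with lowered wild-type GFP, culture density cut under 30%, mutant RFP and density less affected; inactive = any of these conditions unmet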; also: one replicate is shown; some compounds called inactive have numbers as strong as hits
T cruzi inh – blocks replication of Trypanosoma cruzi; AID 1885; hit rate 1.4% among 300,000; inhibition, % (test concentration not listed); T. cruzi beta-gal in NIH3T3, luminescence, 90 h;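 active = mean inhibition across valid replicates above about 55%, limit read from the data; inconclusive = mean below that limit but half or more replicates reach it; inactive = mean below it, under half of replicates reach it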;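 also: signal also drops with host cell toxicity which is not excluded here; 0% = plate median of DMSO wells and 100% = zero luminescence signal; higher percent means less beta-gal luminescence so fewer parasites; stock transfer was 50 nL into about 50 µL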
ALR inh – blocks human ALR sulfhydryl oxidase activity; hit rate 3.8% among 290,000; purified ALR, DTT oxidation, H2O2 HRP-luminol luminescence; inhibition, % (concentration not given with the values); P55789;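 active = mean and each replicate at 75% or more; inconclusive = only one of the two met; inactive = neither met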;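 also: stock transfer was 7.5 nL into about 7.5 µL; 0% = neutral wells and 100% = wells with inactivated enzyme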
Target sequence (P55789 whole entry, looked up): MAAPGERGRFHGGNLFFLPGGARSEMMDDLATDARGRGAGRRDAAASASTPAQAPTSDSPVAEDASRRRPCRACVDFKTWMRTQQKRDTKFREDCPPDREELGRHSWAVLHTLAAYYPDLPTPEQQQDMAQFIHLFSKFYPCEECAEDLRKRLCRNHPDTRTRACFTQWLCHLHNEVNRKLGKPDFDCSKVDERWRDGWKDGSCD
LANA-H2A inh – blocks KSHV LANA binding to histone H2A/H2B; cell-free LANA-H2A/H2B peptide, fluorescence polarization; inhibition, % (concentration not given with the values); hit rate 0.6% among 320,000; in the data active = inhibition mostly above about 10%, no sharp cut-off; inactive = mostly below about 6.7%;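 also: stock transfer was 7.5 nL into about 10 µL; 0% = median of vehicle wells and 100% = median of positive control wells; one replicate is shown; the record names a cut of 25% in any replicate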
Calb FLC – affects C. albicans growth with fluconazole | C. albicans CaCi-2 (fluconazole-resistant clinical isolate) + fluconazole, Alamar Blue growth, 48 h | growth inhibition, % (test concentration not listed) | hit rate 0.57% among 300,000 | AID 1979;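 active = most replicates above 75%; inconclusive = exactly half above 75%; inactive = most below 75%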;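 also: all wells also contain fluconazole at 8 µg/ml as a sub-toxic cotreatment; 0% = median of DMSO wells and 100% = median of geldanamycin control wells; wells of about 8 µL received 7.5 nL stock; the first replicate is given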
Bfl-1 A1 inh – inhibitors of the anti-apoptotic protein A1, read as caspase activation; MEF A1-2A-BIM cells, Caspase-Glo 3/7 luminescence, 3 h; percent of clofoctol response, vehicle zero; caspase activation, % (no concentration beside the values); hit rate 0.066% among 330,000; AID 2462;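 active = over half of replicate activation scores above 10%, or exactly half above 10 with the replicate mean above 10; inconclusive = replicate mean below 10 yet half the replicates above 10; inactive = over half of replicates below 10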;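 also: wells of about 30 µL received 50 nL stock; many hits fall short of the cut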
rRNA inh HTS OD600 – recorded beside rRNA inh HTS, whose call it bears; OD600 change, %; measured here: OD600 growth;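 optical density of the mix in the first replicate; 0 = DMSO median and -100 = no signal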
rRNA inh HTS RFP – recorded beside rRNA inh HTS, whose call it bears; RFP signal change, %; measured here: RFP humanized mutant strains;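 first replicate; 0 = DMSO median and -100 = no signal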
* = called active by the depositor; ? = inconclusive; / = not tested or not shown. This is a subset; count on the stated rates, not on these rows.

SMILES	Beta2AR agonist	Beta apoptosis	rRNA inh HTS	rRNA inh HTS OD600	rRNA inh HTS RFP	T cruzi inh	ALR inh	LANA-H2A inh	Calb FLC	Bfl-1 A1 inh
CCC(=NCCCN(C)C)c1c(O)n(-c2ccc(OC)cc2)c(=O)[nH]c1=O	-4.6	-0.2	/	/	/	28.7	-10.3	0.2	-17.4	-0.7
COc1ccc(C2SCC(=O)Nc3c2c(C)nn3C2CCOC(C)(C)C2)cc1 (configuration not stated)	-0.5	1.5	/	/	/	15.0	0.9	2.5	10.1	-0.6
CN(C(=O)Oc1ccc(C(C)(C)C)cc1)c1ccccc1	6.5	12.8	-28.6	-52.4	-2.2	3.5	1.3	-2.0	-24.2	-0.7
COc1ccccc1Cn1c(SCC#N)nc2cc(C(=O)N3CCC4(CC3)OCCO4)ccc2c1=O	-9.9	6.2	10.4	0.8	-0.3	3.3	-1.8	6.7	-6.0	0.9
COc1ccc(CC2(CCc3ccncc3)C(=O)NC(=O)NC2=O)cc1OC	1.6	-0.4	-0.5	6.3	-0.6	-5.9	1.6	0.8	?	1.1
C=CCn1c(O)c(C=NCCN(C)C)c(=O)[nH]c1=O	0.4	-1.9	/	/	/	-18.5	-7.0	-1.8	2.2	0.2
Cn1c(O)c(C=NCc2ccco2)c(=O)n(C)c1=O	6.8	-2.4	/	/	/	-11.2	0.7	-0.2	21.9	-0.1
CC(=O)c1cc(C#N)c(N2CCN(C)CC2)nc1C	1.4	/	12.7	7.8	-0.6	18.3	-4.5	2.7	-9.0	-0.8
CCc1ccc(N2C(=O)NC(=O)C(Cc3ccc(OC)cc3OC)C2=O)cc1 (configuration not stated)	-3.0	-7.0	/	/	/	6.1	9.8	-0.2	0.4	-0.9
OCCOCCO	-9.6	4.5	5.2	0.7	-9.5	/	/	1.3	/	0.3
CC1=C(C(=O)O)N2C(=O)C(NC(=O)CCCC(=O)O)C2SC1 (configuration not stated)	-3.5	/	18.6	6.6	2.8	-7.4	2.3	3.8	-6.4	-0.6
O=C(COC(=O)Cc1ccccc1)Nc1cccnc1Cl	4.3	-7.0	2.5	-6.9	-1.7	-1.9	0.0	0.2	16.6	-0.2
O=C1C2CCCC1C(N1CCCC1)CC2 (configuration not stated)	-0.3	-15.8	6.6	3.5	-1.2	-21.3	1.1	3.3	-5.2	-0.7
N=Cc1c(O)n(-c2ccccc2)c(=O)n(-c2ccccc2)c1=O	0.0	-8.0	4.6	7.7	-1.1	-16.0	-13.6	-1.0	/	0.2
COc1ccc2[nH]c3c(c2c1)CCNC3C (configuration not stated)	1.2	0.4	5.7	9.8	-0.1	-1.3	19.2	-6.4	1.3	1.1
O=c1[nH]c(=O)n(Cc2ccc(F)cc2)c(O)c1C=NCCCN1CCOCC1	4.0	/	/	/	/	-4.3	6.4	-7.5	-19.8	0.3
CC12CN3CC(C)(CN(C1)C3c1cccnc1)C2=O (configuration not stated)	-5.5	0.1	/	/	/	-11.1	-2.3	-1.4	1.1	1.1
Cc1cccc(CS(=O)(=O)Cc2ccc(C(=O)N3CCC4(CC3)OCCO4)o2)c1	-1.6	-1.3	/	/	/	4.0	1.1	5.0	-3.5	0.2
O=C(Cc1ccccc1)Oc1cccc(N2C(=O)CCC2=O)c1	0.2	-7.9	/	/	/	-2.9	-8.5	-3.0	-5.5	4.5
O=c1[nH]c(=S)[nH]c(O)c1CN1CCCCC1	-1.3	0.9	/	/	/	-23.8	5.6	-4.7	-10.1	0.2
c1ccc2c(N3CCNCC3)nsc2c1	-8.2	2.0	2.4	-1.2	-1.7	-5.4	-8.7	-2.9	-0.2	0.8
CCOC(=O)C1=C(N)Oc2cc(C)oc(=O)c2C12C(=O)N1c3c(cc(OC)cc32)C(C)=CC1(C)C (configuration not stated)	-2.9	-7.1	/	/	/	8.7	-2.3	1.9	35.8	0.3
O=C1CN=C(c2ccc[nH]2)c2cc(Cl)ccc2N1	-3.0	0.6	0.2	-3.9	-4.7	3.9	-1.0	-7.7	-3.2	-0.3
CCCCn1c(O)c(C(C)=NCCCn2ccnc2)c(=O)[nH]c1=O	2.4	/	/	/	/	-7.6	-2.4	-0.9	-6.2	1.2
Cc1ccc(C(C)C)c(OCC#CCN2CCCC2)c1	5.4	-1.3	-25.4	-27.8	-8.1	14.6	1.4	-0.4	-33.2	-2.3

The list goes on:
SMILES	Beta2AR agonist	Beta apoptosis	rRNA inh HTS	rRNA inh HTS OD600	rRNA inh HTS RFP	T cruzi inh	ALR inh	LANA-H2A inh	Calb FLC	Bfl-1 A1 inh
O=C(COc1ccc(Cl)cc1Cl)N1CCN(C/C=C/c2ccccc2)CC1	-5.7	4.7	/	/	/	45.1	2.0	-4.1	26.8	-0.4
Cc1cc(/C=C2/C(=O)NC(=O)N(c3ccc(Br)cc3)C2=O)c(C)n1C	-2.5	-8.9	19.4	9.2	15.8	-0.3	-13.0	2.0	1.2	-1.3
Cc1ccc(C[n+]2c(-c3ccc(C)cc3)cc(-c3ccc(C)cc3)cc2-c2ccc(C)cc2)cc1	-10.8	117.9*	/	/	/	46.6	-7.1	3.5	2.6	0.5
Cc1ccc(N=Cc2c(O)n(-c3ccc(C)cc3)c(=O)[nH]c2=O)cc1	-0.6	6.8	11.0	15.0	2.7	-3.1	/	-3.0	-0.6	0.8
CCOCCCN=Cc1c(O)n(Cc2ccccc2)c(=O)[nH]c1=O	3.9	-1.1	/	/	/	1.9	-2.1	3.1	4.0	-0.5
O=c1[nH]c(=S)n(Cc2ccco2)c(O)c1C=NCc1cccs1	0.6	-0.3	/	/	/	-11.7	9.0	4.2	-7.7	-0.2
O=C1Nc2ccc(Br)cc2C(c2ccccc2Cl)=NC1O (configuration not stated)	-3.6	2.0	/	/	/	7.4	-9.3	-5.3	3.9	2.9
CC(C)NP(=O)(NC(C)C)OP(=O)(NC(C)C)NC(C)C	15.5	-6.6	6.5	9.4	1.6	/	3.1	6.0	/	0.6
CN(C(=O)Oc1ccc(C(=O)c2ccc(Cl)cc2)cc1)c1ccccc1	-4.2	3.3	/	/	/	-3.0	0.4	1.7	-3.6	-0.8
Cc1cccc(CNCCc2ccccc2)n1	-2.1	-8.7	0.4	-0.4	1.4	-22.5	1.3	-7.3	0.1	0.2
CN1C(=O)NC(=O)C2(Cc3ccccc3N3CCOCC32)C1=O (configuration not stated)	2.2	2.5	/	/	/	2.6	29.1	-0.8	-6.9	0.1
O=C(c1cc2nc(-c3ccccc3)cc(-c3ccccc3)n2n1)N1CCC2(CC1)OCCO2	-2.3	4.9	/	/	/	5.8	-5.0	-4.2	-2.4	0.6
COC(=O)CSC1=NN1c1cc(C)nc(N)n1	16.7	-3.7	5.2	5.0	0.0	-5.1	-6.5	-0.7	0.6	-0.1
Cc1cc(OCC(=O)N2CCC(C(=O)O)(c3ccccc3)CC2)c2c(C)cc(=O)oc2c1	19.0	-2.3	/	/	/	-8.4	-5.2	-0.2	-5.6	0.4
O=c1[nH]c(=S)[nH]c(O)c1N=Nc1cc(S(=O)(=O)Nc2ccc(Cl)cc2)ccc1Cl	1.1	7.9	-14.5	2.9	6.9	/	2.7	1.5	/	0.5
Cc1ccc(C2N(c3cc(C)on3)C(=O)C3CCCN32)cc1 (configuration not stated)	4.2	-4.7	/	/	/	3.1	2.2	5.2	4.8	-1.2
COc1ccc(N2C(=O)/C(=C/c3cc(C)n(-c4ccc(C)cn4)c3C)C(=O)NC2=S)c(OC)c1	12.1	0.4	11.8	13.8	7.7	1.6	-25.2	6.3	-3.1	0.0
CCC(=O)OC1(c2ccccc2)CCN(C)CC1C (configuration not stated)	5.7	2.2	15.8	13.8	-0.7	-4.4	5.9	3.2	-5.7	0.7
CCOc1cccc(=NC2CCCCC2)c2c(C)[nH]c(C)c12	26.3	114.9*	-20.3	-17.4	5.7	28.6	29.6	4.3	66.5	-0.8
CNC(=O)ON(C(=O)NC)C1N(C)C(=S)SC1(C)C (configuration not stated)	-2.6	/	/	/	/	-4.4	-7.3	0.4	0.9	0.4
Cc1ccc(NP(=O)(Oc2ccccc2F)Oc2ccccc2F)cc1	-2.2	-6.3	/	/	/	14.5	/	-1.0	0.3	0.2
COC(=O)C1=C(c2cccc(Cl)c2)C[C@@H]2CC[C@H]1N2C(=O)N1CCCC1	-10.8	-5.2	-17.2	-19.1	-9.3	/	-6.9	4.2	/	-0.5
O=C(CN1CCCCC1)c1ccccc1Cl	-5.0	1.1	5.2	5.7	-2.4	-12.1	0.6	1.3	-2.6	0.3
Clc1cccc(N2CCNCC2)n1	-3.8	/	-3.1	-7.2	0.9	2.7	5.1	2.6	2.5	0.2
CC(=O)OC1(c2ccccc2)CC(C(C)(C)C)CN(C(C)(C)C)C1 (configuration not stated)	-0.6	0.1	/	/	/	-12.2	-2.3	-1.1	2.3	0.8

Carrying on.
SMILES	Beta2AR agonist	Beta apoptosis	rRNA inh HTS	rRNA inh HTS OD600	rRNA inh HTS RFP	T cruzi inh	ALR inh	LANA-H2A inh	Calb FLC	Bfl-1 A1 inh
O=[N+]([O-])c1cc(F)c(N2CCCCCC2)cc1N1CCNCC1	23.0	9.5	-0.8	-5.3	0.3	2.7	-2.8	-2.5	-30.6	0.4
COc1ccc2c(c1OC)C(=O)OC2C1c2cc3c(cc2CCN1C)OCO3 (configuration not stated)	3.5	-9.8	9.9	5.5	1.3	2.7	/	2.4	2.2	0.2
CC(C)N1CCN(Cc2cccc3c2OCO3)CC1CCO (configuration not stated)	1.1	-6.7	15.2	18.6	-1.5	18.5	-16.7	-5.7	24.8	0.3
O=C1CN=C(c2ccc(F)cc2)c2oc3ccccc3c2N1	-33.9	5.8	16.0	6.8	2.2	-0.1	-0.1	0.7	1.3	-0.3
CCc1ccc(CN2CCN(Cc3cc(Br)ccc3O)CC2)cc1	-9.4	7.6	-53.3	-79.4	-13.3	34.4	-5.6	4.0	6.1	-0.2
O=C1C2CCN(CC2)C1Cc1ccccc1O (configuration not stated)	/	-5.8	/	/	/	-11.5	13.6	0.3	1.8	0.0
COc1ccccc1CCNCc1cccc(C(F)(F)F)c1	-7.0	-3.6	-1.8	1.3	-2.2	1.4	-9.6	-21.6	-6.6	0.2
CC1=CC(=C2C(=O)NC(=S)NC2=O)C=C(C(F)(F)F)N1C	4.7	-2.6	/	/	/	-7.2	-1.6	-5.3	?	0.2
O=C1CC(=O)N(c2ccc3c(c2)OCO3)C(=O)N1	-1.3	2.9	/	/	/	-3.2	8.8	1.7	-4.9	0.4
CCc1nnc(NS(=O)(=O)c2ccc(N=Cc3c(O)n(-c4ccc(Cl)cc4)c(=O)[nH]c3=O)cc2)s1	-27.2	4.3	18.7	18.2	1.0	14.2	-3.2	1.1	23.4	0.4
O=C(CN1CCN(C(=O)COc2cccc(F)c2)CC1)Nc1ccc(Cl)c(C(F)(F)F)c1	9.6	2.5	-60.9	-77.4	-14.1	/	0.1	-0.6	/	-0.4
Cc1c(N=Cc2c(O)n(C)c(=O)[nH]c2=O)c(=O)n(-c2ccccc2)n1C	5.0	2.5	12.0	9.3	-5.3	-14.3	-12.3	-1.5	1.3	0.9
